Screens from PubChem.
VDR inh – Inhibitors of the vitamin D receptor (VDR): qHTS; Vitamin D3 receptor (Homo sapiens), P11473; VDR-SRC2-3 peptide fluorescence polarization, 2 h; Potency, µM, inactives show max response, negative = inhibition, most hits filed as inhibitors; 0.93% of 400,000 active; active means well fitted inhibition curve with a large enough effect; inconclusive means small, poorly fitted or top-dose-only effect, or another doubt; inactive means no such curve, though single readings can be large or run the other way; further: series mostly up to about 120 µM
Target sequence (P11473 whole entry, looked up): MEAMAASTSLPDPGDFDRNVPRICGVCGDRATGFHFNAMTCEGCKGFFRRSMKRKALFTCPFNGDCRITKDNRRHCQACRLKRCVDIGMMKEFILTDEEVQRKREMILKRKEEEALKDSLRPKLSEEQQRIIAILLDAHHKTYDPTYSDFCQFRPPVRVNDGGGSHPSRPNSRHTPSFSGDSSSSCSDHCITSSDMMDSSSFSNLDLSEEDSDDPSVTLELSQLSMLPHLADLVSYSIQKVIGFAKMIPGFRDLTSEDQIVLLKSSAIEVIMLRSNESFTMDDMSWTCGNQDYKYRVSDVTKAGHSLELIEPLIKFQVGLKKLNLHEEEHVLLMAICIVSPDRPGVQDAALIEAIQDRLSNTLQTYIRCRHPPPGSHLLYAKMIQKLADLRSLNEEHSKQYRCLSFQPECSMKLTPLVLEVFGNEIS
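Two reagent solutions held at 4 deg C in the dark were dispensed, compounds pinned at 23 nl, and the mixture incubated 2 h at room temperature. Read-out: fluorescence polarization of VDR–SRC2-3 peptide binding.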
An asterisk follows results filed as active; ? = inconclusive; & = joins results of further samples. On the % scale 0 is the no-effect control and ±100 the full control effect; potency means the concentration at half of the fitted maximal effect. A portion of the library; the hit share may differ from the screen's.

Cn1c(N)c(C(=O)COC(=O)CCCOc2ccc(Cl)cc2Cl)c(=O)n(C)c1=O
  VDR inh: 5%

CCOC(=O)N1CCN(C(=O)c2ccc(S(=O)(=O)Nc3ccccc3)cc2)CC1
  VDR inh: -6%

Cc1ccc(S(=O)(=O)NCC(=O)OCC(=O)NCc2ccc3c(c2)OCO3)cc1
  VDR inh: -7%

CC(C)c1ccc(/C=C2\C(=N)N3N=C(CC(=O)N4CCCCC4)SC3=NC2=O)cc1
  VDR inh: -7%

OCC[C@H]1C[C@@H](O)[C@H](O)[C@]2(OCCc3ccccc32)O1
  VDR inh: -26%

Fc1ccc(OCc2nn3c(Cn4nnc5ccccc54)nnc3s2)cc1
  VDR inh: ?

O=C(CC(Nc1ccccc1Cl)C(=O)OCC(=O)c1cccs1)c1ccccc1 (stereo unspecified)
  VDR inh: -4%

CC(=O)NC1Sc2ccccc2N=C1c1ccccc1 (stereo unspecified)
  VDR inh: 79µM*

Cc1c(C(=O)N2CCN(c3ncccn3)CC2)oc2c(Cl)cccc12
  VDR inh: -18%

O=C(NCc1ccc(Cl)cc1)C(=O)NCC(c1cccnc1)N1CCN(c2ccc(F)cc2)CC1 (stereo unspecified)
  VDR inh: 1%

CC(=O)c1cccc(NC(=O)COc2cc(C)on2)c1
  VDR inh: -9%

NC1=NC2(CCN(Cc3ccccc3)CC2)n2c(nc3ccccc32)N1
  VDR inh: 15%

Cc1ccc(C(=O)NC(C)c2ccc(-n3ccnc3)cc2)c(C)c1 (stereo unspecified)
  VDR inh: -24%

CCOCCCNC(=O)c1cc(Sc2ccc(F)cc2)nc2ccccc12
  VDR inh: 4%

C[C@H](CO)N1C[C@H](C)[C@@H](CN(C)S(C)(=O)=O)Oc2ccc(NS(=O)(=O)c3ccccc3)cc2C1=O
  VDR inh: 21%

CCCC(=O)N(CCN1CCOCC1)c1nc2c(F)cc(F)cc2s1
  VDR inh: -9%

CCOc1ccccc1CNC(=O)c1cc2oc3ccccc3c2n1C
  VDR inh: -7%

Cc1ccc(-n2nc(C)c3c(C(=O)Nc4ccccc4C(F)(F)F)cc(C)nc32)cc1
  VDR inh: 7%

CN(CCc1ccccn1)C(=O)CCc1nnc(CCCc2ccccc2)o1
  VDR inh: -6%

Fc1ccc(-c2cc(-c3nc(-c4cccc(Cl)c4)no3)[nH]n2)cc1
  VDR inh: 2%

CC(Oc1ccccc1)C(=O)Nc1nc(-c2ccncc2)cs1 (stereo unspecified)
  VDR inh: 7%

Cc1ccc(NC(=O)CN(C)C(=O)COc2ncnc3ccc(Br)cc23)cc1
  VDR inh: -22%

O=C(NCc1ccccc1)c1cccc2c1C(=O)c1ccc(/C=C/c3ccccc3)cc1S2(=O)=O
  VDR inh: ?

Brc1ccc(-c2csc(N3CCC(c4ccccc4)C3)n2)cc1 (stereo unspecified)
  VDR inh: -3%

CCc1ccccc1NC(=O)c1ccc(NCCc2ccccc2)c([N+](=O)[O-])c1
  VDR inh: -14%

Cc1ccc(S(=O)(=O)N2CCC(C(=O)N3CCCCCCC3)CC2)cc1
  VDR inh: -14%

COc1ccc(NC(=O)CN(C)C(=O)CNC(=O)Cc2cccc3ccccc23)cc1
  VDR inh: -10%

O=C(N=C1c2ccccc2CN1c1ccc(F)c(F)c1)c1cccnc1
  VDR inh: -9%

Nn1c(Cc2ccccc2F)nnc1SCC(=O)N1CC(=O)Nc2ccccc21
  VDR inh: 30%

C=CCn1c(SCC(=O)N2CCOCC2)nc(O)cc1=O
  VDR inh: 2%

COc1ccc2c(c1)[N+](C)(C)C(C)(C)C=C2C
  VDR inh: -23%

Cc1cccc(C)c1NC(=O)CCCSc1nnc(-c2ccc(F)cc2)n1-c1ccccc1
  VDR inh: -7%

Cc1oc2ncn(CC(C)C)c(=O)c2c1C(=O)NCCCN(Cc1ccccc1)C(C)C
  VDR inh: 22%

CCCn1c(SCc2ccccc2)nc2c1c(=O)[nH]c(=O)n2C
  VDR inh: ?

CC(=O)Nc1ccc(C(=O)CSc2nnnn2C)cc1
  VDR inh: 13%

COc1ccc(/C=C2\SC(=S)N(CCC(=O)NC3C=CS(=O)(=O)C3)C2=O)cc1 (stereo unspecified)
  VDR inh: 13%

COC(=O)C1=C(C(=O)OC)[C@]2([C@H]3CC=CCN[C@@H](Cc4ccccc4)C(=O)N3Cc3ccccc3)C=C[C@H]1O2
  VDR inh: 13%

CCOC(=O)C1=C(O)CSC1=Nc1ccccc1
  VDR inh: -10%

Cc1cc(C)cc(NC(=O)COC(=O)[C@@H](NC(=O)c2ccco2)C(C)C)c1
  VDR inh: -3%

COC(=O)c1c(C(=O)OC)c2cccc3cc(-c4ccccc4)c4ccc1c4n32
  VDR inh: 6%

Cc1c(C#N)c(=O)oc2ccc3ccccc3c12
  VDR inh: 5%

C=CCNC(=O)c1ccc(Sc2ccccc2)c([N+](=O)[O-])c1
  VDR inh: 22%

Cc1nc2scc(C)n2c(=O)c1S(=O)(=O)Nc1ccc(N2CCN(C(=O)C(C)C)CC2)cc1
  VDR inh: 0%&-5%

COc1ccc(-c2nn(-c3ccccc3)cc2C(=O)NC2CC2)cc1
  VDR inh: -15%

COc1ccccc1C(=O)NC(=S)Nc1ccc(N2CCOCC2)c(Cl)c1
  VDR inh: -5%

O=C(NNC(=O)c1ccc(Cl)cc1Cl)c1cccs1
  VDR inh: 7%

O=C(CCN1CCN(S(=O)(=O)c2ccc(Cl)cc2)CC1)Nc1ccc(F)cc1
  VDR inh: 1%

O=C(/C=C/c1ccco1)Nc1nc(-c2ccc(F)c(F)c2)cs1
  VDR inh: -24%

CC(C)CCn1c(N2CCCC2)nc2c1c(=O)n(C)c(=O)n2C
  VDR inh: ?

CCCCCCC(=O)Nc1c2c(nc3ccccc13)N(C)CC2
  VDR inh: -14%

CCC(C)Nc1cc(C)nc2ncnn12 (stereo unspecified)
  VDR inh: ?

COc1ccc(NC(=O)c2sc3nc4c(cc3c2N)CCCCCC4)cc1
  VDR inh: 2%

CS(=O)(=O)N(CC(=O)Nc1ccc2c(c1)OCCO2)Cc1ccc(Cl)cc1
  VDR inh: 17%

O=C(NC(=S)Nc1ccccc1Br)C1CC1
  VDR inh: 23%

COc1ccc(CCNS(=O)(=O)c2cc(-c3cc(C)no3)ccc2OC)cc1OC
  VDR inh: 3%

CC(=O)CC(=O)Nc1ncccn1
  VDR inh: 1%

O=c1cc(CCl)nc(Cc2c(Cl)cccc2Cl)[nH]1
  VDR inh: 11%

Cc1cc(OCC(=O)C(C)(C)C)c2c(-c3ccccc3)cc(=O)oc2c1
  VDR inh: 9%

O=C1C=CC2(OCCCO2)C(Br)=C1CO
  VDR inh: ?

CCN(CC)C(=O)Cn1cc(S(=O)(=O)CC(=O)Nc2ccccc2C)c2ccccc21
  VDR inh: -10%

Cc1cc(-n2nnc3ccccc32)nc2ccccc12
  VDR inh: -14%

CC(=O)Nc1ccc(C(=O)NCCCOC(C)C)cc1
  VDR inh: -6%

COc1cc(OC)cc(C(=O)Nc2ccc3oc(-c4cccc5c(Br)cccc45)nc3c2)c1
  VDR inh: -14%

COc1ccc(OC(=O)COc2ccc(C)cc2)cc1
  VDR inh: 17%

Clc1ccc(CSc2ccc(-c3cccs3)nn2)cc1
  VDR inh: 10%

COC(=O)c1sccc1S(=O)(=O)N(CC(=O)Nc1ccccc1F)c1ccccc1
  VDR inh: 4%

COc1cccc(OC)c1C(=O)Nc1sc2c(c1C#N)CCC2
  VDR inh: 7%

CC(C)c1ccc(N(CC(=O)NCCCN2CCOCC2)S(=O)(=O)c2ccccc2)cc1
  VDR inh: -6%

CC(OC(=O)CCCc1nc2ccccc2s1)C(N)=O (stereo unspecified)
  VDR inh: -2%

Cc1ccc(-n2cccc2/C=C2/C(=N)N3C(=NC2=O)SN=C3S(C)(=O)=O)cc1Cl
  VDR inh: ?

CCOc1ccccc1NC(=O)C1CCCN(S(C)(=O)=O)C1 (stereo unspecified)
  VDR inh: -2%

COc1cc(C2C(C(=O)Nc3ccc(Cl)cc3)=C(C)Nc3nc(SC)nn32)cc(OC)c1OC (stereo unspecified)
  VDR inh: -6%

Cc1sc2nc(SCc3nc(-c4cccs4)no3)n(-c3ccccc3)c(=O)c2c1C
  VDR inh: 5%

CC1(C)OC2CO[C@]3(COS(N)(=O)=O)OC(C)(C)OC3C2O1 (stereo partly specified)
  VDR inh: -14%

CC(C)(C)Sc1ccccc1S(=O)(=O)C(C)(C)C
  VDR inh: -11%

COc1ccc(S(=O)(=O)N(CC(=O)NC(C)c2ccccc2)c2ccc(C)cc2)cc1OC (stereo unspecified)
  VDR inh: -12%

COc1ccc(N/C(N)=N/c2nc(CSc3nnc(C)s3)cc(=O)[nH]2)cc1
  VDR inh: 6%

CN1C(=O)/C(=C/c2ccc(OCc3ccccc3F)cc2)NC1=S
  VDR inh: -23%

Cc1nc(C)c(C(=O)N2CCCC(C(=O)c3cc(F)ccc3F)C2)s1 (stereo unspecified)
  VDR inh: -1%

CC(C)Cn1c(N)c(C(=O)COC(=O)[C@@H]2CCCN2C(=O)c2cccs2)c(=O)n(C)c1=O
  VDR inh: -14%

CC(C)C[C@H]1CNC(=S)N1CC1CCCN1C[C@H](Cc1ccc(O)cc1)N1C[C@H](Cc2ccccc2)N(CC2CCCCC2)C1=S (stereo partly specified)
  VDR inh: -28%

COc1ccc(-n2c(SCCC#N)nnc2-c2cc(Cl)ccc2OC)cc1Cl
  VDR inh: -7%

Cc1ccc(S(=O)(=O)N2CCCCC2C(=O)O)s1 (stereo unspecified)
  VDR inh: 30%

O=C(O)CC(SCC(=O)Nc1ccc(Cl)c(S(=O)(=O)N2CCOCC2)c1)C(=O)O (stereo unspecified)
  VDR inh: -17%

O=C(COc1ccc(F)cc1)Nc1c(C(=O)N2CCC(N3CCCCC3)CC2)oc2ccccc12
  VDR inh: -6%

Oc1[nH]c2ccccc2c1C=Nc1ccccc1
  VDR inh: -10%

Fc1ccc(-n2cc(-c3ccccc3)c3c(=S)nc[nH]c32)cc1
  VDR inh: ?

CCOc1cc(/C=N/O)cc(Br)c1OC
  VDR inh: 10%

COc1ccc(S(=O)(=O)N2CCC(C(=O)Nc3cc(Cl)ccc3N3CCOCC3)CC2)cc1OC
  VDR inh: 19%

Clc1ccccc1OCCCCn1ccnc1
  VDR inh: -11%

CC(C)c1ccc(/C=N/N2CCCCC2)cc1
  VDR inh: -14%

O=C(c1cccc(S(=O)(=O)N2CCCCC2)c1)N1CCN(Cc2ccccc2)CC1
  VDR inh: -15%

Cc1ccc2c(c1)C(=O)N1[C@H]3c4cc(Cl)ccc4OC[C@@H]3[C@H](c3ccccc3)[C@]1(C)C(=O)N2
  VDR inh: -4%

CCCn1c(N)c(N(CCOC)C(=O)c2ccccc2)c(=O)[nH]c1=O
  VDR inh: -5%

COCCN1C(=O)C(C(=O)OC)CC2=C1CC(C)(C)CC2=O (stereo unspecified)
  VDR inh: -11%

O=C(NC(NC(=S)Nc1ccc(Cl)c(Cl)c1)C(Cl)(Cl)Cl)c1ccco1 (stereo unspecified)
  VDR inh: 9%

Cc1cc(C(=O)O/N=C(\N)c2ccc(C(C)(C)C)cc2)no1
  VDR inh: -14%

CC(=O)Nc1ccc(OCCCNC(=O)c2c(-c3ccccc3)noc2C)cc1
  VDR inh: -18%

COc1ccc(CN2CCNC(=O)C2CC(=O)N(C)Cc2ccon2)c(OC)c1 (stereo unspecified)
  VDR inh: 9%

COc1ccc(S(=O)(=O)NC2CCCCC2)cc1-n1cnnn1
  VDR inh: -16%

The final four entries of the part before lead into the next.
Cc1cc(C(=O)O/N=C(\N)c2ccc(C(C)(C)C)cc2)no1
  VDR inh: -14%

CC(=O)Nc1ccc(OCCCNC(=O)c2c(-c3ccccc3)noc2C)cc1
  VDR inh: -18%

COc1ccc(CN2CCNC(=O)C2CC(=O)N(C)Cc2ccon2)c(OC)c1 (stereo unspecified)
  VDR inh: 9%

COc1ccc(S(=O)(=O)NC2CCCCC2)cc1-n1cnnn1
  VDR inh: -16%

O=C(CSc1nnc(-c2ccncc2)n1-c1ccc(Cl)cc1)NCc1cccs1
  VDR inh: 4%

COC(=O)c1cc(OC)c(OC)cc1N=CC1=C(O)CC(C)(C)CC1=O
  VDR inh: 11%

COc1ccc(OC)c(NC(=O)CN2C(=O)NC(C)(c3ccc4c(c3)OCCO4)C2=O)c1 (stereo unspecified)
  VDR inh: -9%

CCC(C)[C@H](NC(=O)NCc1ccccn1)C(=O)OC (stereo partly specified)
  VDR inh: -15%

NCCCC[C@@H]1NC(=O)c2cc([N+](=O)[O-])cc(F)c2NCCCC[C@@H](C(N)=O)NC(=O)[C@H](CCC(N)=O)NC1=O
  VDR inh: -4%

CCO[C@@H]1OC(C(N)=O)=C[C@H](C(C)(C)C)[C@H]1CCCO
  VDR inh: 18%

COc1cc([N+](=O)[O-])ccc1NC(=O)COC(=O)c1n[nH]c2ccccc12
  VDR inh: 6%

O=C(N/N=C/C=C\c1ccccc1[N+](=O)[O-])c1ccncc1
  VDR inh: -2%

CC1=C(C(=O)Nc2ccccc2)C(c2ccc(C(=O)O)cc2)n2ncnc2N1 (stereo unspecified)
  VDR inh: 6%

CC(C)(C)C(=O)CNCC(=O)C(C)(C)C
  VDR inh: -15%

Cc1ccc(CNC(=O)c2nnn(CC(=O)Nc3cc(C)ccc3C)c2N)cc1
  VDR inh: 6%

COC(=O)c1cc(NS(=O)(=O)c2ccc(N3CCC(C)CC3)c([N+](=O)[O-])c2)cc(C(=O)OC)c1
  VDR inh: 1%

CS(=O)(=O)NCc1ccc(C(=O)NC2CCCCC2)cc1
  VDR inh: -4%

Cc1cccc(OCc2nnc(SCC(=O)NC3CCCC3)n2C)c1
  VDR inh: -17%

COc1ccc(C2CC(c3cccs3)=NN2C(=O)COC(=O)C2CCCCC2)cc1OC (stereo unspecified)
  VDR inh: -8%

COCC(=O)N1CCC(n2nnc3cc(F)ccc32)CC1
  VDR inh: 2%

CCc1ccc(N2C(=O)C3CCCN3C2=S)cc1 (stereo unspecified)
  VDR inh: -12%

COCCn1c(=O)[nH]c(=O)c2cc(C(=O)c3cc(OC)ccc3O)cnc21
  VDR inh: 9%

CN(C)c1cccc(C(=O)N2CCCC(CCC(=O)NCc3ccccc3F)C2)c1 (stereo unspecified)
  VDR inh: -4%

COc1cccc(OCC(=O)NN=C2c3ccccc3-c3ccccc32)c1
  VDR inh: 2%
